Compound activity (PubChem)
Lassa entry inh: qHTS for Inhibitors of binding or entry into cells for Lassa Virus; Lassa virus pseudotype entry inhibition, cell reporter; control for the full effect not named in the record; Potency, µM (highest dose often 37.9 µM), for inactives: at the highest dose activity change, negative = inhibition, hits mostly inhibitors; hit rate 1.2% among 300,000; active means well fitted inhibition curve with a large enough effect; inconclusive means small, poorly fitted or top-dose-only effect, or effect the other way; inactive means flat fitted curve, though single readings scatter; tested in HEK293 cells; further: on the % scale 0 is the no-effect control and ±100 the full control effect; nearly all actives have a fitted effect of over 50% in size; luciferase read-out
SARS PLpro yeast: qHTS of Yeast-based Assay for SARS-CoV PLP; hit rate 0.19% among 330,000; S. cerevisiae expressing SARS-CoV PLpro, growth rescue; control for the full effect not named in the record; Potency, µM (top dose mostly 32.9 µM), for the others: top-dose activity, positive = growth rescue; further: 0% is about no effect; nearly all actives have a fitted effect of over 55% in size; growth read by luminescence after 48 h
MARV entry inh: qHTS for inhibitors of binding or entry into cells for Marburg Virus. Marburg virus pseudotyped entry inhibition, cell reporter; control for the full effect not named in the record; about a third of the inactives were read at about 46 µM. Potency, µM (titrated, usually from 37.8 µM), for the others: at the highest dose activity change, negative = inhibition, actives largely listed as inhibitors. hit rate 1.8% among 300,000. AID 540276, 2011; active = well fitted inhibition curve with a large enough effect; inconclusive = small, poorly fitted or top-dose-only effect, or effect the other way; inactive = flat fitted curve, though single readings scatter; tested in HEK293 cells; about a fifth of its hits are not listed in these tables; further: on the % scale 0 is the no-effect control and ±100 the full control effect; luciferase read-out
Cruzain inh noDet: qHTS Assay for Promiscuous and Specific Inhibitors of Cruzain (without detergent); Potency, µM, without a hit: max response, negative = inhibition, usual class: inhibitors; hit rate 2.3% among 200,000; purified cruzain, Z-FR-AMC fluorescence, no detergent; active means well fitted curve in the direction sought with a large enough effect; inconclusive means small, poorly fitted or top-dose-only effect, or another doubt; inactive means no such curve, though single readings can be large; an effect the other way counts as inactive or inconclusive;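 further: plate controls were enzyme without inhibitor for no effect and buffer without enzyme for full effect; nearly all actives have a fitted effect of over 40% in size; top concentration of the series not given in the record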
Target sequence (P25779 123-467 limits assumed): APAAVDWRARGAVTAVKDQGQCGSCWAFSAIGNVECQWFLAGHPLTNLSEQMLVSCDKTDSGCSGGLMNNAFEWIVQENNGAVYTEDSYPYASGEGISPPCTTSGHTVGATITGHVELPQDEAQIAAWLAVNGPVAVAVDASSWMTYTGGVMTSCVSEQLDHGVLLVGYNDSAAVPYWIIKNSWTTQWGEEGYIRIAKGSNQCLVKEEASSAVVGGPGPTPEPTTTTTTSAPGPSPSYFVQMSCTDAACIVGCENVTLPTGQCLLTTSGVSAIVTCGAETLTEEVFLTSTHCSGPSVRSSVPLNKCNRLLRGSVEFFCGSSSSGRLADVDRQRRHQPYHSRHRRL
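Detergent-free condition (0.00005% Triton X-100) in acetate buffer pH 5.5 with DTT. 1.5 nM enzyme and compound were pre-mixed 15 min, then 2 uM Z-FR-AMC substrate added; reaction progress from fluorescence change between first and third reads (60 s).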
NS1 function inh: qHTS Assay for Inhibitors of Influenza NS1 Protein Function; hit rate 0.4% among 270,000; S. cerevisiae slowed by influenza A NS1, growth recovery by OD600; Potency, µM (highest dose often 46.1 µM), without a hit: at the top dose activity, positive = more growth; AID 2326, 2010; further: actives are rising curves; nearly all actives have a fitted effect of over 50% in size
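A cell-based growth assay was used: compounds that relieve NS1-induced slow growth of budding yeast raise OD600. Assay medium was yeast nitrogen base with ammonium sulphate and -URA supplement, pH 6.0, with 2% galactose.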
Cruzain Triton: qHTS Assay for Promiscuous and Specific Inhibitors of Cruzain (with detergent) | Cruzipain (Trypanosoma cruzi), P25779 | purified cruzain, Z-FR-AMC fluorescence, 0.01% Triton | Potency, µM, without a hit: max response, negative = inhibition, usual class: inhibitors | hit rate 0.43% among 200,000 | AID 1478, 2009; active means well fitted curve in the direction sought with a large enough effect; inconclusive means small, poorly fitted or top-dose-only effect, or another doubt; inactive means no such curve, though single readings can be large; an effect the other way counts as inactive or inconclusive;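 further: plate controls were neutral wells for no effect and buffer without enzyme for full effect; nearly all actives have a fitted effect of over 40% in size; top concentration of the series not given in the record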
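Enzyme 1.5 nM, Z-FR-AMC 2 uM, NaOAc 100 mM pH 5.5, DTT 5 mM, Triton X-100 0.01%; 15 min RT compound preincubation; kinetic ex360/em450, 60 s delta.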
StopGo reporter: High Throughput Screening for Foot and Mouth Disease Virus Antivirals; human cells with a luciferase reporter of 2A StopGo recoding; control for the full effect not named in the record; Potency, µM (titrated, usually from 57.9 µM), inactives show top-dose signal change, negative = less light; hit rate 1.2% among 410,000; AID 1159524, 2015; active = well fitted falling curve with a large enough effect; inconclusive = small, poorly fitted or top-dose-only effect; inactive = no such curve, though single readings can be large or run the other way; tested in HEK293T cells; further: on the % scale 0 is the no-effect control and ±100 the full control effect; nearly all actives have a fitted effect of over 45% in size; luciferase light after 4 h
RE007 growth inh: qHTS Assay for Inhibitors of the HIV-1 protein Vpr; AID 651644, 2012; S. pombe RE007 Vpr strain, BacTiter-Glo ATP luminescence, 24 h; control for the full effect not named in the record; hit rate 0.21% among 360,000; Potency, µM (series often up to 92.2 µM), for inactives: top-dose activity change, negative = less growth; active = well fitted falling curve with a large enough effect; inconclusive = small, poorly fitted or top-dose-only effect; inactive = no such curve, though single readings can be large or run the other way;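 further: on the % scale 0 is the no-effect control and ±100 the full control effect; nearly all actives have a fitted effect of over 50% in size; the assay follows cell death caused by Vpr and the record does not say whether a fall means rescue or toxicity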
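Fission yeast RE007 carrying one integrated HIV-1 vpr copy, seeded at OD 0.01 in PMG+AL medium with 23 nL pinned compound. Grown 24 h at 30 degrees; viability read by BacTiter-Glo luminescence after 5 min.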
Starred values were filed as active, the others as inactive; u = inconclusive; x = not tested or not shown; & = joins results of further samples; [ ] = another dose, or the depositor's remark. Unless noted, the call rests on the fitted dose curve; in most records, active means well fitted rising curve with a large enough effect; inconclusive means small, poorly fitted or top-dose-only effect; inactive means no such curve, though single readings can be large or run the other way. Potency means the concentration at half of the fitted maximal effect.

SMILES	Lassa entry inh	SARS PLpro yeast	MARV entry inh	Cruzain inh noDet	NS1 function inh	Cruzain Triton	StopGo reporter	RE007 growth inh
O=c1oc2c(-c3cccc(F)c3)cc(O)cc2s1	x	-11.6%	x	x	-4.1%	x	0.0%	-21.8%
Cc1ccc(-n2c(O)c(C=Nc3ccc(S(N)(=O)=O)cc3)c(=O)[nH]c2=O)cc1	-0.1%[46.1 µM]	0.7%	1.4%[46.1 µM]	x	x	x	25.0%	3.0%
CCOc1cc(C)nc(N2CCCC(C(=O)NCc3ccccc3F)C2)n1 (stereo not given)	6.3%	2.2%	-16.5%	-9.5%	-19.1%	2.8%	x	-5.5%
COc1ccc(-n2nc3c(c2NC(=O)C(=O)N2CCN(C)CC2)CSC3)cc1	20.4%[46.1 µM]	x	x	8.0%	x	-0.6%	-10.7%	x
Clc1ccc(SCCOCCN2CCc3ccccc3C2)cc1	-6.7%	-0.3%	u	x	-5.5%	x	-7.0%	-29.6%
CCOC(=O)CCCCNCc1ccccc1	15.2%	-0.7%	2.6%	-4.6%	-3.7%	3.5%	-13.9%	-12.3%
CCOCCCn1cc(C(=O)c2cc(Br)ccc2O)cc(C#N)c1=O	u	-3.8%	-26.7%[46.1 µM]	x	x	x	5.7%	-28.1%
CCN(c1ccc(NC(=O)CN2C(=O)NC3(CCOc4ccccc43)C2=O)cc1)C(C)C (stereo not given)	0.2%	-0.7%	-23.7%	5.5%	-5.3%	0.0%	-13.7%	-8.5%
Cn1cccc1Cc1nnc(SCC(=O)NCc2ccc3c(c2)OCO3)n1CCc1ccccc1	7.0%	-0.7%	u	u	-12.3%	-5.5%	8.2%	-3.0%
CC(C)(C)c1ncc(S(=O)(=O)c2ccc(C(F)(F)F)cn2)c(N)n1	-1.1%	0.7%	-22.8%&-22.8%	x	-0.9%	x	-20.8%	3.6%
COc1ccc(-c2cc(C(F)(F)F)nc(SCC(=O)N3CCCCC3C)n2)cc1OC (stereo not given)	2.0%[46.1 µM]	x	u	-0.9%	x	-2.6%	0.0%	x
N#Cc1ccc(-c2cccnc2)nc1SCc1ccc(Cl)cc1Cl	2.0%	-4.8%	u	20.6%	-4.4%	-8.2%	u	2.8%
CC1(C(=O)Nc2ccccc2)Cc2ccccc2C(=O)O1 (stereo not given)	-5.3%[46.1 µM]	0.0%	7.2%[46.1 µM]	x	0.9%	x	0.6%	-8.2%
CC(C)(C)n1cnc2cc(NC(=O)c3ccco3)ccc21	x	2.5%	-14.2%[46.1 µM]	x	4.6%	x	21.4%	-7.3%
COc1ccc(CCN2C(=O)CSC2c2cccc([N+](=O)[O-])c2)cc1OC (stereo not given)	x	-6.2%	x	x	-23.9%	x	u	6.7%
Nc1c(S(=O)(=O)c2ccccc2)csc1C(=O)O	-3.9%	1.4%	5.9%[46.1 µM]	x	11.8%	x	-7.2%	1.0%
CN1CCN(c2sc(S(C)(=O)=O)nc2S(=O)(=O)c2ccc(Cl)cc2)CC1	x	4.6%	x	x	3.7%	x	-4.0%	2.8%
COc1ccc(NC(=O)Cn2nnc(C(=O)NCc3ccco3)c2N)c(OC)c1	-8.9%[46.1 µM]	4.0%	u	u	-13.8%	3.1%&-2.5%	5.0%&-12.2%	1.7%
Cc1ccc(N2C(=O)c3cccc4c([N+](=O)[O-])ccc(c34)C2=O)c2cccnc12	x	-1.6%	x	x	-0.2%	x	u	11.8%
CC(=O)c1cccc(NC(=O)C2=CC(c3ccc4c(c3)OCO4)=NS(=O)(=O)N2C)c1	u	-5.2%	u	2.8%	8.5%	-1.4%	-11.9%&-28.3%	4.3%
COc1cccc(CNS(=O)(=O)/C=C/c2ccc(OC)c(OC)c2)c1	2.6%	2.0%	-9.4%[46.1 µM]	x	x	x	3.3%	-14.4%
O=C(N/N=C/c1ccccn1)c1sc2ccccc2c1Cl	x	-5.8%	x	x	-72.0%	x	11.0%	u
Cc1c(C)c([N+](=O)[O-])c(C)c(C)c1N	-5.1%	x	u	x	x	x	0.0%	0.0%
Cn1cc(S(=O)(=O)N2CCCC2)cc1C(=O)NCc1ccc(Cl)cc1	x	1.7%	x	x	2.4%	x	-29.3%	5.1%
CCOC(=O)C1CCN(c2nc3ccccc3nc2C(C#N)C(=O)OCCOC)CC1 (stereo not given)	-29.8%	4.7%	0.4%&-12.8%	u	3.0%	-7.5%	-20.5%	1.7%
S=C(Nc1ccc(Cl)cc1)N1CCOCC1	u	x	-17.9%[46.1 µM]	x	x	x	73.5%[activator]	-1.3%
CSc1ccc(/C=N/N2CCN(Cc3ccc(Cl)cc3)CC2)cc1	24.4%[46.1 µM]	0.9%	1.6%[46.1 µM]	x	0.8%	x	-25.2%	0.2%
CCCc1nc2ccc(NC(=O)NCCC(=O)OCC)cc2c(=O)n1Cc1ccc(Cl)cc1	7.1%	0.8%	-13.1%	u	3.6%	-11.4%	-18.2%	2.3%
CC(Oc1cccc(Cl)c1)C(=O)NC1CC(C)(C)NC(C)(C)C1 (stereo not given)	-0.1%	-2.9%	-22.4%	x	13.1%	x	0.0%	u
COC(=O)c1ccc(COc2ccccc2/C=C/C(=O)c2ccc(OCC(=O)O)cc2)cc1	-26.4%[46.1 µM]	11.2%	u	x	-18.2%	x	5.7%	3.5%
COc1ccc(OC)c(S(=O)(=O)NCC(c2cccs2)N2CCc3ccccc3C2)c1 (stereo not given)	2.1%	-14.0%	-26.6%	x	x	x	54.6%[activator]	-10.5%
O=C(c1sc2cc(F)ccc2c1Cl)N1CCN(c2cccc(Cl)c2)CC1	-5.3%	-24.4%	u	-11.6%	15.8%	-9.0%	-13.7%	-11.5%
CCOC(=O)c1cccc(NC(=O)C2CCCN(c3nnc(N4CCCC4=O)s3)C2)c1 (stereo not given)	x	7.5%	x	x	1.2%	x	-44.7%	-7.8%
O=C(NCC(c1ccco1)N1CCc2ccccc2C1)C(=O)Nc1ccccc1 (stereo not given)	u	0.4%	3.1%	x	x	x	-12.1%	-5.8%
O=C(CCC1CCCN(Cc2cccc3c2OCO3)C1)NCc1ccc(F)c(F)c1 (stereo not given)	-0.8%	0.1%	u	x	-2.2%	x	-9.3%	-17.0%
O=C(NCCc1nc2ccccc2[nH]1)/C(=C/c1ccco1)NC(=O)c1ccc(Br)o1	-3.0%	-10.0%	u	-4.8%	-1.9%	-11.6%	-23.4%	17.2%
COc1ccccc1C(c1c(N)n(C)c(=O)n(C)c1=O)C(C)[N+](=O)[O-] (stereo not given)	-22.4%[46.1 µM]	0.2%	-18.2%[46.1 µM]	x	-6.0%	x	8.5%	u
COc1ccc(CN2CCN(Cc3ccco3)CC2)cc1OC	x	u	x	x	-3.9%	x	-7.0%	-25.9%
O=C(Nc1nnc(C(F)(F)F)s1)c1cccnc1	-7.6%	-7.4%	-4.2%	-2.7%	-10.7%	0.2%	15.3%	9.1%
Cc1ccccc1C(=O)NCC(=O)N1CCN(c2ccccn2)CC1	6.4%	-6.2%	u	x	x	x	-8.8%	5.5%
O=C(CCc1nc2ccccc2s1)OCC(=O)c1ccccc1	x	2.0%	-0.1%	7.4%	-1.1%	-8.7%	24.6%	3.8%
CC1(C)Cc2c(sc(NC(=O)COc3ccc(Cl)cc3)c2C#N)C(C)(C)N1	-9.8%	3.2%	u	x	12.0%	x	-23.4%	u
CC(=O)NCCN=C(C)c1sc2ccccc2c1O	-0.8%	5.2%	20.2%	6.1%	9.8%	-4.0%	16.5%	0.3%
COc1cccc(N2CC(C(=O)Nc3nnc(SCC(=O)Nc4ccc(NC(C)=O)cc4)s3)CC2=O)c1 (stereo not given)	-5.6%	-3.7%	-18.5%	x	10.3%	x	5.5%	-8.3%
N#Cc1ccc(-c2ccc3c(c2)OCO3)nc1SCC(=O)OCc1ccccc1	6.3%	5.2%	9.4%	u	-0.3%	3.0%	-12.8%	-14.3%
CCN(CC)C1CCN(Cc2cn[nH]c2-c2ccc(OC)c(F)c2)C1 (stereo not given)	4.2%	0.9%	-13.6%[46.1 µM]	x	0.1%	x	-17.7%	-10.5%
COc1ccc(-c2c(C)n([O-])c(C)c(C)[n+]2=O)cc1OC	6.2%	-4.8%	-2.3%[46.1 µM]	0.8%	-2.9%	-1.5%	8.8%	4.7%
CCn1nc(-c2ccccc2)c(-c2ccccc2)c(C(=O)Nc2nc(C)c(C(C)=O)s2)c1=O	-26.0%[46.1 µM]	x	-10.4%[46.1 µM]	u	x	-5.4%	0.0%	x
CCOC(=O)C1CCN(Cc2ccc(C(=O)OC)cc2)CC1	13.9%	9.0%	-18.2%	-3.0%	-3.4%	0.9%	14.3%	-1.8%
CC1=C(C(=O)Nc2ccccc2C)C(c2cccs2)n2nc(SCc3ccccc3)nc2N1 (stereo not given)	u	x	u	25.1µM*	x	-0.7%	-25.3%	x
CC(C)(C)c1ccc(OCCn2cc(C(=O)c3ccco3)c3ccccc32)cc1	-7.9%[46.1 µM]	x	u	-1.4%	x	-7.0%	u	x
CC1=NN(c2ccccc2)C(=O)C1/C=C1/NC(=S)NC1=O (stereo not given)	x	-0.4%	x	x	-1.8%	x	-14.6%	-3.8%
COc1cccc2cc(C(=O)NCCc3c(C)[nH]c4ccc(F)cc34)c(=O)oc12	12.2%[46.1 µM]	x	12.9%[46.1 µM]	7.3%	x	-4.7%	-19.3%	x
C=C(C)CSc1nnc(-c2cccc(S(=O)(=O)N(C)C)c2)n1-c1cc(OC)ccc1OC	u	-1.5%	-0.1%&-12.0%	u	-13.3%	-0.1%	-13.3%	-16.1%
O=C1Nc2ccccc2O/C1=C\c1ccccc1	-7.6%[46.1 µM]	-1.6%	0.8%[46.1 µM]	x	2.3%	x	8.8%	0.8%
Cc1cc(N2CCN(C)CC2)nc2ccc(NC(=O)CCC(=O)NCCCOC(C)C)cc12	12.7%[46.1 µM]	0.7%	-3.7%[46.1 µM]	x	0.3%	x	-10.1%	-16.3%
